Screening results as filed in PubChem.
TRPML1 blocker: human mucolipin-1 channel inhibition. activity change, negative = inhibition, % (test concentration not listed). Q9GZU1. TRPML1-inducible cells, Ca2+ dye fluorescence, FDSS; hits give low values; inhibition of EC80 agonist-evoked calcium signal. hit rate 0.02% among 390,000; in the data active means activity change below about -50%; inconclusive means about -30% to -50%; inactive means above about -30%;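 further: stimulus is agonist 54-4 at its EC80 concentration; on the % scale 0 is the no-effect control and ±100 the full control effect; compound concentration not given in the record; the text of the record puts the active cut at -80%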
Target sequence (Q9GZU1 whole entry, looked up): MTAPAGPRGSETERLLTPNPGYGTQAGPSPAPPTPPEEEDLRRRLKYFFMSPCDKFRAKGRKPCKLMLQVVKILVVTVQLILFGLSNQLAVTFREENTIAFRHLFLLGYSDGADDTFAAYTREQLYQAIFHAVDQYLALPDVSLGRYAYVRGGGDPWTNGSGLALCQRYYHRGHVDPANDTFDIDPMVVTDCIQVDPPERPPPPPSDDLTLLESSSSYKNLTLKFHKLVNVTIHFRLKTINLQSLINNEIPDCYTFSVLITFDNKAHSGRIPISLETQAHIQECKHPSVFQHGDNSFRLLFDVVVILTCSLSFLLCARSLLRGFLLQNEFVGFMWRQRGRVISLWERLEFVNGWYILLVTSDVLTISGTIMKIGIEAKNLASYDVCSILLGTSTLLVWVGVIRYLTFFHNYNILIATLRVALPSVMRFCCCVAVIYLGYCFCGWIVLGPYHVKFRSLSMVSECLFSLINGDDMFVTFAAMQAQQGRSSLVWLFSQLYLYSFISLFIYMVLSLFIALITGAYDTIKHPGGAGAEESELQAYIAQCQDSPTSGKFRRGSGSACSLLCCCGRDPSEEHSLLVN
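TRPML1-DL cells, Tet-induced overnight (~16 h, 37 °C) at 1,500 cells/well, were loaded with Ca8 no-wash dye plus quencher for 45-90 min at room temperature. Compounds were pinned during FDSS kinetic reading; agonist 54-4 at EC80 (4 uM final) then added.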
D2 agonist: agonists of human D2 dopamine receptor (beta-arrestin); P14416; DiscoveRx PathHunter D2 beta-arrestin, luminescence, 90 min; 100% = 57 uM dopamine signal; activation, % (concentration not given with the values); hit rate 0.084% among 360,000; AID 624465; in the data active = activation above about 40%; inconclusive = about 15% to 40%; inactive = below about 15%; further: compound concentration not given in the record; the text of the record calls up to 30% inactive
Target sequence (P14416 whole entry, looked up): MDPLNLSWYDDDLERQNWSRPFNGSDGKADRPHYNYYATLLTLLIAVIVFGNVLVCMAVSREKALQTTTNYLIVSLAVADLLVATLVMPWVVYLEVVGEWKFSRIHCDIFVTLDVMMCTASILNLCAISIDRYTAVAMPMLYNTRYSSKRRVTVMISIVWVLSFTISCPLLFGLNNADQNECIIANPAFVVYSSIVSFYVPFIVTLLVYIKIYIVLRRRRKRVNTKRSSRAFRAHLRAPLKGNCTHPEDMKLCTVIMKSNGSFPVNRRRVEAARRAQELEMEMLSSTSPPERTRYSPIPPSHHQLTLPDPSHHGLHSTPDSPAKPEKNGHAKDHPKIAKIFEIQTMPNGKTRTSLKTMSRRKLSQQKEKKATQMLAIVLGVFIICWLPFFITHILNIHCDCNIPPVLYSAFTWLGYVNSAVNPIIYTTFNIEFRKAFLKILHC
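DiscoveRx PathHunter D2 beta-arrestin cells (2,100/well) attached overnight, then compound-stimulated 90 min at 37 C in HBSS/10 mM HEPES/0.1% Tween-20 buffer; beta-galactosidase complementation read by luminescence after 1 h at ambient temperature. Dopamine 57 uM final (EC100) as control.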
TRPML1 agonist: activates the human TRPML1 channel. Q9GZU1. TRPML1-expressing cells, Ca2+ dye fluorescence, FDSS; host cell line not named in the record; reference of the full effect not given here. activation, % (test concentration not listed). hit rate 0.12% among 410,000; in the data active = activation above about 50%; inconclusive = about 30% to 50%; inactive = below about 30%; further: 0% is about no effect; the text of the record puts the active cut at 80%
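Tetracycline-induced TRPML1-DL cells are seeded and incubated overnight before loading with a no-wash Ca2+ dye and quencher. Agonist activity is taken from the 110 s fluorescence read following compound pin-transfer on an FDSS, before EC80 54-4 challenge.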
D2 PAM: positive allosteric modulators of human D2 dopamine receptor; P14416; DiscoveRx D2 beta-arrestin cells, luminescence, 90 min; 100% = 57 uM dopamine signal; potentiation, % (concentration not given with the values); hit rate 0.23% among 360,000; AID 624464; active = potentiation of 50% or more; inconclusive = 30% to 50%; inactive = 30% or less;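 further: compound concentration not given in the record; tested on top of an EC20 dose of dopamine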
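D2 cells co-treated with compound plus 50 nM dopamine (EC20) for 90 min at 37 deg C to detect potentiation. Beta-arrestin recruitment was read as enzyme-fragment luminescence after 1 h at ambient temperature. Full response was set by 57 uM dopamine.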
Six1-Eya2 blk: inhibitors of human Six1/Eya2 interaction | AID 651725 | hit rate 0.56% among 360,000 | activity change, % (concentration not given with the values) | AlphaScreen GST-Six1/His-Eya2 binding, biochemical; hits give low values; control for the full effect not named in the record; in the data active = activity change below about -65%; inconclusive = about -30% to -65%; inactive = above about -30%; further: on the % scale 0 is the no-effect control and ±100 the full control effect
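Six1/Eya2 binding was read as AlphaScreen signal after compounds were pinned into GST-Six1 plus His-tagged Eya2 (5X stock 250/500 nM) in pH 8.0 Tris/NaCl/TCEP buffer, beads added, then incubated 1 h, 37 C, dark.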
PINK1 modulator: changes PINK1 expression | AID 624263 | hit rate 0.2% among 410,000 | Potency, µM (series often up to 76.6 µM), without a hit: top-dose activation (PINK1 increase), usual class: activators | PINK1 immunofluorescence, high-content cytometry, 24 h; active = well fitted activation curve with a large enough effect; inconclusive = small, poorly fitted or top-dose-only effect; inactive = flat fitted curve, though single readings scatter; cell line not stated here;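 further: potency means the concentration at half of the fitted maximal effect; % of control where 0% means no effect; nearly all actives have a fitted effect of over 65% in size; a mitochondrial uncoupler was the plate control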
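Compound titrations (5 concentrations, 24 h) on a stable cell line; DMSO and CCCP controls. Endpoint: fixed-cell PINK1 immunofluorescence with mitochondrial, cell and nuclear markers, scanned by microplate cytometer.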
Starred values were filed as active, the others as inactive; ? = inconclusive; . = no result given; [ ] = another dose, or the depositor's remark.

molecule	TRPML1 blocker	D2 agonist	TRPML1 agonist	D2 PAM	Six1-Eya2 blk	PINK1 modulator
CCCN1CCCc2ccccc21	18.8	-2.8	-0.1	-14.0	-4.6	5.9%[38.3 µM]
N#Cc1cccc(-n2nnnc2-c2ccc3c(c2)OCO3)c1	20.7	-3.1	-0.2	-4.7	10.8	0.3%
O=C(CCCCCN1C(=O)[C@@H]2Cc3ccccc3CN2C1=O)Nc1ccccc1Cl	-4.6	-1.3	0.5	-2.5	-6.3	-1.2%
CC(=O)N1c2ccc(S(=O)(=O)NCC3CCC(C(=O)Nc4ncccc4C)CC3)cc2CC1C (configuration not stated)	5.2	-5.2	0.1	-6.0	-0.2	-0.2%
COc1ccc(NC(=O)C(=O)NCCc2csc(-c3ccc(Cl)cc3)n2)cc1OC	-9.6	.	0.7	.	.	1.1%
S=C(NCCc1ccccc1)Nc1ccc(Br)cn1	44.6	-4.7	1.0	-6.7	-2.4	2.4%
CCCCOCCCn1cnc2c([nH]c3cc(OC)ccc32)c1=O	-2.7	-1.4	1.4	-8.3	-4.4	0.2%
CCN1C(=O)C2C(C1=O)N1C(c3ccccc3)C3C(=O)N(CC)C(=O)C3N1C2c1ccccc1 (configuration not stated)	-4.1	4.4	0.4	-1.1	7.1	-1.1%
Cc1cc(C)n(-c2nc3ccccc3nc2NCCc2ccccc2)n1	5.5	2.4	0.9	-3.4	115.7	12.0%
COC(=O)CSc1nnc(NC(=O)C2CC(=O)N(c3ccc(F)cc3)C2)s1 (configuration not stated)	-15.1	0.8	-0.5	7.5	-5.9	-1.0%
COc1ccccc1N1CCN(C(=O)Cc2c(C(=O)O)c(C)cn2C)CC1	-11.2	.	0.3	.	.	-1.4%
CN=C(Nc1ccccc1)SC1CC(=O)N(c2ccc(C(=O)OC)cc2)C1=O (configuration not stated)	-10.8	-2.2	0.6	-9.2	-6.8	2.0%

(cont.)
molecule	TRPML1 blocker	D2 agonist	TRPML1 agonist	D2 PAM	Six1-Eya2 blk	PINK1 modulator
CN(CC(=O)Nc1c(Cl)cccc1Cl)C(=O)Cc1cccs1	1.6	0.5	0.3	-2.5	-0.8	1.3%
O=C(COC(=O)COc1ccc(Cl)cc1)NCCCc1ccccc1	32.5	-6.9	1.2	-3.0	4.4	0.8%
Cc1cccc(NS(=O)(=O)c2cccc(C(=O)N3CCCC(C(F)(F)F)C3)c2)c1 (configuration not stated)	40.0	-2.8	-1.1	11.4	-3.6	-1.4%
CC1=CC(C)(C)N(C(=O)C(C)N2C(=O)c3ccccc3C2=O)c2ccc(C)cc21 (configuration not stated)	8.2	4.8	1.3	-5.2	2.9	3.5%
COc1ccc(NC(=O)c2ccc(NS(=O)(=O)c3cccc4cccnc34)cc2)cc1	8.5	3.3	0.6	11.6	21.9	3.5%
CCOc1ccc(N(CC(=O)N2CCOCC2)S(=O)(=O)c2ccc(SC)cc2)cc1	-8.7	-6.1	0.6	-4.6	17.1	0.1%
Cc1ccc(/C=N/n2c(-c3ccc(Cl)cc3)n[nH]c2=S)o1	8.3	-5.1	2.2	-3.7	1.3	-3.6%
COc1ccc2[nH]c3c(c2c1)CCN1C(=O)C(CC(=O)NCc2ccc(OC)c(OC)c2)C[C@H](C(=O)N2CCCCC2)[C@@]31CCc1ccccc1 (some centres not stated)	-8.4	-1.9	-1.4	-6.1	-1.3	-0.1%
Cc1ccc(CNC(=O)c2cc(S(=O)(=O)N3CCCCC3)cn2C)cc1	-2.0	.	1.2	.	.	-4.1%
N#Cc1ccc(COC(=O)c2cnc(Cl)c(Cl)c2)cc1	16.2	-6.0	1.8	-8.6	8.3	0.6%
COc1ccc(S(=O)(=O)N2CCCC2CNC(=O)C(=O)NCCc2ccccc2)cc1 (configuration not stated)	-16.7	1.4	0.1	-11.5	5.1	?
N#Cc1ccc(N[C@@H]2CCN3C(=O)c4ccccc4[C@@H]3C[C@H]2O)cc1	1.0	1.0	-0.3	-3.2	1.1	1.8%

(more compounds)
molecule	TRPML1 blocker	D2 agonist	TRPML1 agonist	D2 PAM	Six1-Eya2 blk	PINK1 modulator
CCN(CC)S(=O)(=O)c1ccc(OC(C)C)c(NC(=O)c2c3c(nc4ccccc24)CCN(Cc2ccccc2)C3)c1	-12.8	-3.8	1.2	0.6	-7.7	4.0%
CC(C)(C)n1cnc2cc(NCc3ccc(Br)cc3)ccc21	6.5	-5.1	0.0	-6.5	-27.0	?
Cc1cc(=O)[nH]c2c1c(C)nn2C1CCCC1	-2.2	-1.2	0.4	-5.0	2.6	-4.3%[38.3 µM]
COc1ccc(CNC(=O)C[C@H]2C[C@H](C(=O)N3CCCCC3)[C@@]3(C)c4[nH]c5ccc(Cl)cc5c4CCN3C2=O)cc1OC	-14.5	-0.4	0.6	.	-20.5	2.3%
CCNC(=O)C1(C)CCN(C(=O)c2ccc3c(c2)CCO3)C1 (configuration not stated)	.	-5.9	-0.1	-4.1	1.7	0.8%
CN(C)CCCNc1oc(-c2ccc(Cl)cc2)nc1S(=O)(=O)c1ccccc1	3.4	-5.7	0.9	-6.3	-5.9	-0.1%
COc1ccc(-c2cc3c(=O)n(CC(=O)NCc4cccnc4)ncn3n2)cc1	-3.9	-6.0	0.5	-1.6	-0.5	2.5%
CCOc1nc(C)ccc1-c1noc(-c2ccccc2OC)n1	0.3	-2.2	0.6	0.6	5.5	2.9%
Cc1ccc(S(=O)(=O)N(CC(=O)N/N=C/c2cccc(C)c2)c2cccc3cccnc23)cc1	-6.4	3.0	0.4	0.5	-4.5	11.5%
COC(=O)c1ccc(CNC(=O)CC[C@H]2O[C@@H](n3cc(C)c(=O)[nH]c3=O)C[C@@H]2O)cc1	.	-4.3	-0.3	-7.1	8.7	-0.2%
CCc1ccc(CNC(=O)C(=O)NCC2CCCO2)cc1 (configuration not stated)	2.5	-2.3	0.0	-14.1	1.6	2.8%
O=C(NCc1cccnc1)c1ccc(NC(=O)c2ccc([N+](=O)[O-])cc2)cc1	2.8	?	0.8	-1.9	-0.7	-1.2%

Later entries:
molecule	TRPML1 blocker	D2 agonist	TRPML1 agonist	D2 PAM	Six1-Eya2 blk	PINK1 modulator
CCn1ccc2c(OCC(=O)Nc3ccc(OC)cc3OC)cccc2c1=O	2.6	.	-0.1	.	.	0.3%
Cc1ccc(NC(=O)CSc2nc(C)c(C)c(C)n2)cc1S(=O)(=O)N1CCOCC1	7.0	-1.6	-0.4	-5.9	0.4	0.4%
O=C(CSc1ccccc1F)NC(=O)c1ccccc1Br	-9.2	-0.4	-0.4	-21.7	0.9	-0.3%
CC(=O)c1ccc2c(ccc3ccccc32)c1	0.2	-3.6	0.0	-4.5	18.3	-1.7%
CCN(C(=O)COC(=O)CCS(=O)(=O)c1ccccc1)c1c(N)n(Cc2ccccc2)c(=O)[nH]c1=O	11.5	8.6	-0.2	4.3	-1.5	-0.2%
COC(=O)C1=C(C(=O)OC)[C@@H]2N(C)c3ccc(OC)cc3[C@@]23C[C@@H](C(=O)OC)N(C(=O)c2cc(C)oc2C)C3=N1	-6.4	-1.8	-0.4	1.1	?	4.4%
Nc1c2c(nc3ccc(Br)cc13)N(c1ccccc1)CC2	-9.1	-0.8	-0.1	-27.5	-7.9	1.8%[38.3 µM]
CC1CCCC(C)N1C(=O)CSc1nnnn1Cc1ccccc1 (configuration not stated)	5.8	-1.8	1.4	-3.7	5.1	-0.8%
COCCCNC(=O)c1cccc2c(-c3cccc(C(N)=O)c3)coc12	.	-4.2	-0.1	-16.2	-25.9	3.6%
COc1ccc(N(CC(=O)N2CCCCCC2)S(=O)(=O)c2ccccc2[N+](=O)[O-])c(OC)c1	-5.4	-5.3	0.6	1.5	2.6	0.4%
COC(=O)c1ccccc1COc1cccn2c(N(C)C(=O)CCC3CCCC3)c(C)nc12	.	7.3	0.1	7.0	-2.0	4.6%
CCOc1ccc(/C(O)=C2/C(=O)C(=O)N(CC3CCCO3)C2c2cccs2)cc1 (configuration not stated)	-15.4	-2.6	0.0	-0.8	3.8	0.6%

Part of the list above, with values under each structure:
Values in the order – TRPML1 blocker | D2 agonist | TRPML1 agonist | D2 PAM | Six1-Eya2 blk | PINK1 modulator
> CN(CC(=O)Nc1c(Cl)cccc1Cl)C(=O)Cc1cccs1
 : 1.6 | 0.5 | 0.3 | -2.5 | -0.8 | 1.3%
> O=C(COC(=O)COc1ccc(Cl)cc1)NCCCc1ccccc1
 : 32.5 | -6.9 | 1.2 | -3.0 | 4.4 | 0.8%

Continuation:
molecule	TRPML1 blocker	D2 agonist	TRPML1 agonist	D2 PAM	Six1-Eya2 blk	PINK1 modulator
O=c1oc2ccccc2cc1-c1cn2cc(Cc3ccc(Cl)cc3)sc2n1	2.6	.	0.1	.	.	0.6%
Fc1cc(Br)ccc1NC(=S)NCCc1ccccc1	1.6	2.7	-0.6	-4.4	0.8	.
O=C(NCCNC(=O)c1cc(OCC(F)(F)F)ccc1OCC(F)(F)F)Nc1ccccc1	-19.6	-5.1	0.4	-9.5	-0.5	1.1%
O=C(NCC1CCCO1)c1ccc(N2CCCCC2)nc1 (configuration not stated)	18.7	0.9	0.3	-6.1	2.7	?
COc1cc(/C=C2/SC(=O)N(Cc3ccccc3)C2=O)ccc1OCc1ccncc1	13.3	1.2	-0.6	-13.3	1.5	-0.5%
COCCN1C(=O)COc2ccccc2C1C(=O)NC1CCCC1 (configuration not stated)	.	.	-0.1	.	29.2	?
O=c1c(-c2ccc(Br)cc2)[n+]([O-])c2ccccc2n1OCc1ccccn1	-5.7	5.4	0.2	-2.6	4.8	6.1%
CCCC1=NCCn2cccc21	10.0	-2.6	-0.1	-3.0	-1.7	1.0%
COc1ccc(Cc2nnc(NC(=O)CSc3ccc(C)cc3)s2)cc1	-16.4	-1.2	1.6	-21.3	-7.6	5.7%
Cc1ccc(S(=O)(=O)N(C)C)cc1NC(=O)CSc1nc2ccccc2c(=O)n1CC1CCCO1 (configuration not stated)	10.2	2.6	0.8	-31.6	-11.7	2.8%
COc1ccccc1CN(Cc1nc2ccccc2c(=O)[nH]1)S(=O)(=O)c1ccc2ccccc2c1	39.6	-4.3	0.1	-19.3	-14.8	.
COC(=O)N1C(=O)[C@](CC(C)C)(c2ccccc2)N1C(=O)OC	-11.3	-2.4	3.1	-2.2	-1.8	-0.1%

Continuation:
molecule	TRPML1 blocker	D2 agonist	TRPML1 agonist	D2 PAM	Six1-Eya2 blk	PINK1 modulator
O=C(COc1ccccc1)N1CCNC1=O	-3.2	-1.3	-0.7	0.5	3.6	3.8%[38.3 µM]
COc1ccc(CC(=O)Nc2cc(S(=O)(=O)N3CCCCC3)ccc2C)cc1	-11.8	-5.1	0.0	-35.3	18.3	2.7%
COc1ccc(NC(=O)CN(C)C(=O)CC2CCCC2)cc1	21.6	-3.1	0.6	4.0	1.2	-0.6%
CC(CNC(=O)CCC(=O)N1CCOc2ccccc21)c1ccccc1 (configuration not stated)	-1.5	-3.6	-0.2	-11.8	4.4	-0.8%
CCc1cccc(C)c1NC(=O)CSc1n[nH]c(-c2ccccc2)n1	-16.8	.	0.1	.	.	0.2%
CC(Oc1ccc(F)cc1)C(=O)Nc1cc(C(F)(F)F)ccc1-n1cncn1 (configuration not stated)	-1.4	-3.4	0.6	-26.6	-1.5	-0.9%
